Measles inh: inhibitors of measles virus growth in cells, primary screen, measles RdRp inhibitor project, cell-based, single point, HTS. infected Vero cells, GFP fluorescence, 64 h; hits give low values. z-score (concentration not given with the values). 33,000 tested, 0.1% active;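 active = z-score under -3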;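 also: score is relative to mean and SD of the compound wells of a plate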
* = called active by the depositor.

SMILES | Measles inh
CC1=C(C(=O)OCC2CCCCC2)C(c2ccccc2OC(C)C)NC(=O)N1 (centres undefined) | -0.68
CC(=O)c1ccc(NC(=O)c2ccc(NS(=O)(=O)c3c(C)noc3C)cc2)cc1 | -0.94
COc1cc(OC)c(NC(=O)C2c3ccccc3C(=O)N3CCc4ccccc4C23)cc1Cl (centres undefined) | -0.93
CCCN1CCN(C(=O)c2cnc(Nc3ccc(C)c(Cl)c3)c3ccccc23)CC1 | -0.5
CCCNC(=O)c1ccc2c(c1)ncn2-c1cc(OC)ccc1OC | -0.05
Cc1ccc(-c2noc(CCC(=O)N3CCN(C(=O)c4ccco4)CC3)n2)cc1 | -0.87
NC(=O)C1CCN(C(=O)CCCn2c(=O)[nH]c3ccccc3c2=O)CC1 | -0.06
Cc1ccc(C)c(N2CCN(C(=O)c3cccc(N4C(=O)NC5CC4(C)Oc4ccc(Cl)cc45)c3)CC2)c1 (centres undefined) | 0.28
NC(=O)c1nn2c(C(F)(F)F)cc(-c3ccc(Br)cc3)nc2c1Cl | 0
COCCNC(=O)c1ccc(N2CC3CC(C2)c2cccc(=O)n2C3)c(NC(=O)c2ccc(F)cc2)c1 (centres undefined) | -0.92
CCOC(=O)c1cc2nc(-c3ccc(Br)cc3)cc(C(F)(F)F)n2n1 | 0.27
O=C(NCc1n[nH]c(=S)n1-c1cccc(C(F)(F)F)c1)c1ccccc1 | 1.9
COCCCNS(=O)(=O)c1ccc2c(c1)CCN2C(=O)C1CCC1 | 1
CCOC(=O)c1c(-c2ccccc2Cl)csc1NC(=O)c1cccnc1 | 0.01
NS(=O)(=O)c1ccc(CCNC(=O)CCS(=O)(=O)c2ccc(Br)cc2)cc1 | 0.13
O=S(=O)(c1ccccc1)c1nc(-c2ccc(Cl)cc2)oc1N1CCOCC1 | -0.28
COc1ccc(C2SCCN2S(=O)(=O)c2ccc([N+](=O)[O-])cc2)cc1Br (centres undefined) | -0.72
CCOC(=O)Cn1c(Cl)cc(=O)n(C)c1=O | 0.1
CC(=O)NCCNC(=O)c1ccc(CNc2nc(=S)[nH]c3ccccc23)cc1 | 1.6
CS(=O)(=O)NCCCNc1ccc(Cl)cc1[N+](=O)[O-] | 0.09
O=C1CCCC2=C1C(c1ccccc1)N(C(=O)c1ccccc1)c1ccccc1N2 (centres undefined) | -1.1
COCc1oc2ccc(NS(=O)(=O)c3ccc(Cl)cc3)cc2c1C(=O)OC | -0.25
CC(C)Cn1cc(F)c(=O)[nH]c1=O | 0.09
Cc1ccc(-n2c(-c3ccccc3)cn3c4c(=O)n(C)c(=O)n(C)c4nc23)cc1Br | 1.5
CCOC(=O)c1c(NC(=O)CSc2nc3ccccc3o2)sc2c1CCC2 | -0.4
O=C(NCCCN1CCOCC1)c1cccc(N2CCCC2=O)c1 | 0.16
O=C(Nc1ccc(-c2cn3ccccc3n2)cc1)c1ccc(Br)cc1 | -0.83
Cc1ccc(-n2ncc3c(N4CCCC(C)C4)ncnc32)c(C)c1 (centres undefined) | -0.3
Cc1cccc(Cc2c(C)nc3c(C(=O)N(C)CCC#N)c[nH]n3c2=O)c1 | -0.09
CCCCCCc1ccc(C(=O)Nc2nnc(CC)s2)cc1 | 0.12
Cc1ccc(-c2nc(NCc3ccccc3Cl)c3ccccc3n2)cc1 | -0.02
O=C(NCCCCNC(=O)c1cccc([N+](=O)[O-])c1)c1cccc([N+](=O)[O-])c1 | 0.89
Cc1cc(C)c(S(=O)(=O)N2CCCCC2C(=O)O)c(C)c1 (centres undefined) | 0.19
Nc1ccc(NC(=O)c2ccco2)cc1 | 0.75
O=C(Nc1c2c(nn1-c1ccc(Cl)cc1)CS(=O)(=O)C2)c1ccc(S(=O)(=O)N2CCCC2)cc1 | -0.17
COc1ccc2oc(=Nc3cccc(F)c3)c(C(=O)Nc3ccccc3)cc2c1 | -0.73
O=C1C(=O)N(Cc2ccc(CN3C(=O)C(=O)c4ccccc43)cc2)c2ccccc21 | 0.86
Cc1ccc(-n2c(=O)c3sccc3n(Cc3ccc(Cl)cc3)c2=O)cc1 | -0.05
COc1ccc(Cl)cc1NC(=O)c1ccc(F)c([N+](=O)[O-])c1 | 0.48
CC1=C(C(=O)Nc2ccccn2)C(c2ccsc2)C2=C(CCCC2=O)N1 (centres undefined) | -0.03

Reprinted from the part before: five compounds, then new ones.
SMILES | Measles inh
COc1ccc2oc(=Nc3cccc(F)c3)c(C(=O)Nc3ccccc3)cc2c1 | -0.73
O=C1C(=O)N(Cc2ccc(CN3C(=O)C(=O)c4ccccc43)cc2)c2ccccc21 | 0.86
Cc1ccc(-n2c(=O)c3sccc3n(Cc3ccc(Cl)cc3)c2=O)cc1 | -0.05
COc1ccc(Cl)cc1NC(=O)c1ccc(F)c([N+](=O)[O-])c1 | 0.48
CC1=C(C(=O)Nc2ccccn2)C(c2ccsc2)C2=C(CCCC2=O)N1 (centres undefined) | -0.03
CCOC(=O)C1=C(C)N=C2SC(C)C(=O)N2C1c1ccc(F)cc1 (centres undefined) | -0.55
Nc1nnc(-c2cccnc2)s1 | 1.2
COc1cccc(OCC2=NC(C)(C)Cc3c2ccc2ccccc32)c1 | -1.1
O=C(OCCN(C1=NS(=O)(=O)c2ccccc21)c1ccccc1Cl)c1ccc(Br)cc1 | -0.48
CC1CCN(S(=O)(=O)c2ccc3[nH]c(=O)cc(C(=O)NC(C)CCc4ccccc4)c3c2)CC1 (centres undefined) | 0.03
COc1ccc(-c2cc(C(F)(F)F)n3ncc(C(=O)O)c3n2)cc1 | 0.1
COc1ccc2nc(N3CCC(C(=O)NCCN(C)Cc4ccccc4)CC3)sc2c1 | 0.06
Cn1c(=NC(=O)c2ccc(S(=O)(=O)N3CCCC3)cc2)sc2cc(F)ccc21 | 0.52
O=C(NCCc1ccccc1)C1CCN(S(=O)(=O)c2ccc(Br)s2)CC1 | -0.69
COc1ccc(-n2c(=S)[nH]c3cc(C(=O)O)ccc3c2=O)c(OC)c1 | -0.55
O=C1NC(=O)c2ccc(N3CCOCC3)c3cccc1c23 | 0.98
CCN(Cc1c(O)ccc2c3c(c(=O)oc12)CCC3)C1CCCCC1 | -0.35
CS(=O)(=O)Nc1ccc(S(=O)(=O)Nc2ncccn2)cc1 | -0.38
Cc1ccc(NC(=O)Cn2cnc3ccc(S(=O)(=O)N4CCC(C)CC4)cc3c2=O)c(Br)c1 | 0.72
CCN1C(=O)C(c2ccc(O)cc2)(c2ccc(O)cc2)c2ccccc21 | -0.35
COc1ccc(C2Oc3ccccc3N2C(C)=O)cc1 (centres undefined) | -1
O=C(NCc1cccnc1)C(=O)Nc1cccc2ccccc12 | 0.58
CC1=C(C(N)=O)C(c2ccccc2Cl)NC(=S)N1 (centres undefined) | -0.37
COc1ccc(-c2c3c(=O)n(C)c(=O)n(C)c3cn2-c2cccc([N+](=O)[O-])c2)cc1 | -1.5
CC1CCN(C(=O)c2cc3n(n2)C(C(F)(F)F)CC(c2ccc(Cl)cc2)N3)CC1 (centres undefined) | -1.5

Some of these compounds in order of SMILES length, ascending:
SMILES | Measles inh
O=C(NCCc1ccccc1)C1CCN(S(=O)(=O)c2ccc(Br)s2)CC1 | -0.69
Cn1c(=NC(=O)c2ccc(S(=O)(=O)N3CCCC3)cc2)sc2cc(F)ccc21 | 0.52
Cc1ccc(NC(=O)Cn2cnc3ccc(S(=O)(=O)N4CCC(C)CC4)cc3c2=O)c(Br)c1 | 0.72
CC1CCN(S(=O)(=O)c2ccc3[nH]c(=O)cc(C(=O)NC(C)CCc4ccccc4)c3c2)CC1 (centres undefined) | 0.03

Further records
SMILES | Measles inh
COc1ccc(C2C(C(=O)NCCC3=CCCCC3)c3ccccc3C(=O)N2Cc2ccc(F)cc2)cc1 (centres undefined) | -0.04
O=C(Nc1ccc(Br)cc1)C1CC(=O)N(c2ccccc2)C1 (centres undefined) | -1.5
COc1ccccc1C(=O)NC(NCC12CC3CC(CC(C3)C1)C2)(C(F)(F)F)C(F)(F)F | 1.1
Cc1ccc(C)c(Nc2ncnc(N)c2[N+](=O)[O-])c1 | -1.8
COc1ccc(Nc2ncnc3sc4c(c23)CCC(C)C4)cc1 (centres undefined) | -0.75
O=C(c1ccc2c(c1)OCO2)N1CCN(c2ccc([N+](=O)[O-])cc2)CC1 | 0.95
CC1(C)Cc2ccccc2-c2c1c(=O)n(Cc1ccccc1)c1n[nH]c(=S)n21 | -1.2
O=C(Oc1ccc([N+](=O)[O-])cc1)c1cccnc1 | 0.5
CC1=C(C(=O)OCCOc2ccccc2)C(c2ccc(F)cc2)C2=C(CC(c3ccccc3)CC2=O)N1 (centres undefined) | -0.77
CCOC(=O)c1c(N)sc(C(=O)Nc2ccc(C)cc2C)c1C | -0.31
O=C(Nc1ccc(Br)cc1)c1nc[nH]c1C(=O)O | 0.12
CC1CCN(C(=O)Nc2cccc(Cl)c2)CC1 | -0.63
COc1cccc(-n2ccnc2SCC(=O)Nc2cc(C)cc(C)c2)c1 | 0.93
CCCSc1nc2c([nH]c3ccccc32)c(=O)n1-c1ccc(F)cc1 | -0.08
CC1=C(C(=O)Nc2ccccc2F)C(c2cccc(Br)c2)C2=C(CC(C)(C)CC2=O)N1 (centres undefined) | 0.62
COC(=O)c1ccccc1NC(=O)CCS(=O)(=O)c1ccc(Br)s1 | 0.65
Cc1ccc(C2C=C(c3ccc4c(c3)OCO4)Nc3ncnn32)cc1 (centres undefined) | -0.17
CC(C)c1ccc(O)c(NC(=O)c2ncn[nH]2)c1 | 0.42
NC(=O)c1c(NC(=O)CSc2nc(-c3ccco3)cc(C(F)(F)F)n2)sc2c1CCCC2 | 0.09
CC(=O)C1=C(C)Nc2ccccc2S1 | -0.29

Single values from the results shown.
Measles inh with CC(=O)C1=C(C)Nc2ccccc2S1 → -0.29
Measles inh with COc1ccccc1C(=O)NC(NCC12CC3CC(CC(C3)C1)C2)(C(F)(F)F)C(F)(F)F → 1.1

Next section:
SMILES | Measles inh
CCC(C(=O)Nc1ccc(S(=O)(=O)Nc2nccc(C)n2)cc1)c1ccccc1 (centres undefined) | -2.4
CC1(C)CC(=O)C2=C(C1)c1c(ccc3ccccc13)NC2c1ccccn1 (centres undefined) | -0.87
Cc1ccc(SCc2cc(=O)[nH]c(Nc3nc(C)c4ccc(C)cc4n3)n2)cc1 | -0.5
COc1ccc(Cl)cc1Nc1ncnc2c1cnn2-c1cccc(C)c1 | 0.12
Cc1cc(C)c(NC(=O)C(=O)NCCCOC(C)C)c(C)c1 | -0.52
COC(=O)C1=C(C)NC2=C(C(=O)CC(c3ccccc3OC)C2)C1c1ccc(OC)c(OC)c1OC (centres undefined) | -0.81
COC(=O)C1=C(N)OC2=C(C(=O)CC(C)(C)C2)C1c1ccc(C)cc1 (centres undefined) | -0.7
O=C(Nc1ccc(Cc2ccncc2)cc1)c1ccc2ccccc2n1 | -0.2
Cc1ccc(C)c(NC(=O)CS(=O)(=O)c2cn(Cc3ccccc3Cl)c3ccccc23)c1 | 0.74
CCc1ccc(NC(=O)N2CCN(Cc3ccccc3)C2)cc1 | 0.25
COc1ccc(-c2cc(C(=O)NCCCN3CCOCC3)no2)cc1OC | -0.61
O=C(Nc1nc(-c2ccccc2)c(C(=O)c2ccccc2)s1)c1ccc(S(=O)(=O)N2CCCC2)cc1 | -0.73
CN(CCC#N)C(=O)c1cc2nc(-c3ccc4c(c3)OCO4)cc(C(F)(F)F)n2n1 | -0.77
COc1ccc(-c2ccc3c(N)c(C(=O)NCc4ccccc4Cl)sc3n2)cc1 | -0.13
O=C(CCCn1c(=S)[nH]c2cc3c(cc2c1=O)OCO3)N1CCc2ccccc2C1 | -0.07
COc1cccc(C2NC(=O)NC(C)=C2C(=O)OCC(C)C)c1 (centres undefined) | 2.3
O=C(Nc1cccc2c(NC(=O)c3ccccc3[N+](=O)[O-])cccc12)c1ccccc1[N+](=O)[O-] | -0.09
COc1ccc(CNc2ccc3c(c2)ncn3-c2ccc(C)cc2)cc1OC | -0.56
COC(=O)C1=C(N)OC2=C(C(=O)CC(C)(C)C2)C1c1ccc(SC)cc1 (centres undefined) | 1.2
NC(=O)c1c(NC(=O)c2ccccc2Br)sc2c1CCCC2 | -0.05
CC1CCC(NC(=O)C2CCN(S(=O)(=O)N3CCCCCC3)CC2)CC1 (centres undefined) | -0.35
COc1ccc(-n2c(=O)c3c4c(sc3n(CC(=O)NCc3ccco3)c2=O)CCCC4)c(OC)c1 | 1.4
O=C1c2cccc3cccc(c23)C(=O)N1CCN1CCN(S(=O)(=O)c2cccc([N+](=O)[O-])c2)CC1 | 0.36
C#CCOc1ccc2c(c1)c(C(=O)OCC)c(C)n2C | 0.21
O=C(Nc1c(C(=O)Nc2ccc(Br)cc2)cnn1-c1ccccc1)c1ccco1 | -0.83
Cc1nc2c(C(=O)NCc3cccnc3)c[nH]n2c(=O)c1Cc1ccc(Cl)cc1 | 1.6
Cc1oc2c(cc(NS(=O)(=O)c3cccs3)c3ccccc32)c1C(=O)OC(C)C | 0.56
C=CCOC(=O)C1=C(C)Nc2[nH]c(=O)[nH]c(=O)c2C1c1cccs1 (centres undefined) | -0.09
Cc1ccccc1Nc1nc(-c2c(C)nc3ncccn23)cs1 | -0.98
CCN(c1ccc(F)cc1)S(=O)(=O)c1cccc2nsnc12 | -0.1
CCOC(=O)c1cc2c(=O)n3ccccc3nc2n(Cc2ccco2)c1=NC(C)=O | -0.61
Cc1ccc(-c2cc(C(=O)O)c3cc(Br)ccc3n2)cc1C | -2.6
NS(=O)(=O)c1ccc2c(c1)NC(=O)CO2 | -0.43
O=C(Nc1ccc(NC(=O)c2ccc(Br)cc2)c(Cl)c1)c1ccc(Br)cc1 | -0.61
O=C(CSc1nc2ccccc2c(=O)n1CCCN1CCCCC1)N1CCCC1 | -0.93
CCN1C(=O)CC(C(=O)Nc2ccc(Br)cc2)SC1=Nc1ccc(C)c(Cl)c1 (centres undefined) | -0.43
Cc1c(Cl)c([N+](=O)[O-])nn1CCCC(=O)Nc1cccc(O)c1 | 0.8
COc1ccc(CCC(=O)Nc2ccc(-c3noc(-c4ccccc4OC)n3)cc2)cc1 | -0.41
Cc1cccn2c(=O)c3cc(C(=O)Nc4cccc5ccccc45)sc3nc12 | 1.1
Cc1nc2c(sc3cc([N+](=O)[O-])cc(Sc4ccccc4)c32)c(=O)n1C | 0.16

Assay outcomes as filed in PubChem.

Some of the compounds tested (hit frequency here may not be typical).
